VDR inhibitor = blocks the human vitamin D receptor; P11473; VDR-SRC2-3 peptide fluorescence polarization, 2 h; Potency, µM, inactives show max response, negative = inhibition, hits mostly inhibitors; 400,000 compounds, 0.93% hits; active = well fitted inhibition curve with a large enough effect; inconclusive = small, poorly fitted or top-dose-only effect, or another doubt; inactive = no such curve, though single readings can be large or run the other way; note: series mostly up to about 120 µM
Target sequence (P11473 whole entry, looked up): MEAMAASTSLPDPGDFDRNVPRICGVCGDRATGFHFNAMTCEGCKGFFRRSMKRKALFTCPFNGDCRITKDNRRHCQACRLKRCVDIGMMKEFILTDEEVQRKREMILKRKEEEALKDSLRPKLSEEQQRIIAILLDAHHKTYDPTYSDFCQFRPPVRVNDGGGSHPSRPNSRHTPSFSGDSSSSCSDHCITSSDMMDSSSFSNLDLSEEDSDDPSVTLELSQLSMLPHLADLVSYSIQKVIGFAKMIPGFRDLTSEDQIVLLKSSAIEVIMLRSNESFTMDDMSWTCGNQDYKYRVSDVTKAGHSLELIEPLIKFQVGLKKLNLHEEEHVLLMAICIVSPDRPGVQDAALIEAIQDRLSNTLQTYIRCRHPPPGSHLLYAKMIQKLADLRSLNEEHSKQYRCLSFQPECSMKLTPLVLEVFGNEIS
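Signal is fluorescence polarization, reporting how far test compounds block the interaction of VDR with the SRC2-3 coregulator peptide after a 2 h room-temperature incubation.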
The depositor's hits bear a star; ? = inconclusive. % is set by controls: 0 for no effect and ±100 for the full control effect; potency is the fitted concentration of half-maximal effect. Some of the compounds tested (hit frequency here may not be typical).

SMILES	VDR inhibitor
C1CN(CC2COC(CN3CCOCC3)CO2)CCO1 (configuration not stated)	10.5%
CC1(c2ccccc2)CC(C)(C)N2C(=O)C(=O)c3cccc1c32 (configuration not stated)	?
CCOC(=O)N1CCN(C(=O)c2cn(CC)c3ccc(S(=O)(=O)N4CCC(C)CC4)cc3c2=O)CC1	-9.3%
C=CCn1cc(-c2cccc(Cl)c2)cc(C#N)c1=O	6.0%
CN1C(=O)C(c2ccccc2[N+](=O)[O-])C(=O)c2ccccc21 (configuration not stated)	-9.1%
CCOc1ccc(NC(=O)CCS(=O)(=O)c2ccc(C)cc2)cc1	11.4%
Cc1cc(C)c(NC(=O)CSc2nnc(-c3ccccn3)n2N)c(Cl)c1	8.3%
O=C(CSc1cn(CC(=O)N2CCCCC2)c2ccccc12)NCC1CCCO1 (configuration not stated)	?
Cc1nc(C(=O)NCc2ccccc2)sc1C1(C)CC(c2ccccc2)=NO1 (configuration not stated)	-4.4%
N#CC1=C(N)Oc2n[nH]c(-c3cccs3)c2C1c1ccco1 (configuration not stated)	-5.3%
CCOC(=O)C1CCN(c2cc(=O)n(C3CCCCC3)c(=O)[nH]2)CC1	-4.9%
CCOc1ccc(-c2cc(C(=O)NCCCOC)c3c(-c4ccc(CC)cc4)[nH]nc3n2)cc1	7.9%
COc1ccc(CNc2cc(C)ccn2)c(O)c1	2.5%
CC1S/C(=C(\C#N)C(=O)NCc2ccco2)N(Cc2ccco2)C1=O (configuration not stated)	-8.6%
N#Cc1cccc(C#N)c1Oc1ccc(S(=O)(=O)Nc2ccc(Cl)cc2)cc1	-13.8%
COc1ccc(-n2nc3ccc(NC(=O)c4cccc(OCCC(C)C)c4)cc3n2)cc1	-15.7%
CC1(C)C(=O)Nc2ccccc2N1C(=O)COC(=O)CNS(=O)(=O)c1ccc(F)c(F)c1F	?
CCOc1cc(-c2cc(-c3ccc(NC(C)=O)cc3)nc(N)c2C#N)ccc1O	-6.8%
O=C(CN1CCN(S(=O)(=O)c2cccc(Cl)c2)CC1)N1CCCCC1	4.2%
CCn1cc(S(=O)(=O)c2ccc(OC)cc2)c(=O)c2cc(F)c(N3CCN(C)CC3)cc21	-25.7%
O=C(NCc1cccnc1)c1ccc(N2CCOCC2)c([N+](=O)[O-])c1	7.3%
NNC(=O)c1ccc(OCC2CC(c3ccc(Cl)cc3)=NO2)cc1 (configuration not stated)	-6.4%
COc1cc2c(cc1OC)C[N+](C)(C)CC2	-25.0%
CC1CN(CC(O)c2ccc(Br)cc2)CCO1 (configuration not stated)	13.6%
Cc1cc(C)cc(NC(=O)c2cc(S(=O)(=O)N3CCCCCC3)cn2C)c1	11.1%
COc1ccc(OC)c(NC(=O)c2c(NCc3ccc(OC)c(OC)c3)sc3c2CCC(C)C3)c1 (configuration not stated)	0.9%

Gathered by group: those above with four or more nitrogen atoms.
SMILES	VDR inhibitor
CCOC(=O)N1CCN(C(=O)c2cn(CC)c3ccc(S(=O)(=O)N4CCC(C)CC4)cc3c2=O)CC1	-9.3%
Cc1cc(C)c(NC(=O)CSc2nnc(-c3ccccn3)n2N)c(Cl)c1	8.3%
N#CC1=C(N)Oc2n[nH]c(-c3cccs3)c2C1c1ccco1 (configuration not stated)	-5.3%
CCOc1ccc(-c2cc(C(=O)NCCCOC)c3c(-c4ccc(CC)cc4)[nH]nc3n2)cc1	7.9%
COc1ccc(-n2nc3ccc(NC(=O)c4cccc(OCCC(C)C)c4)cc3n2)cc1	-15.7%
CCOc1cc(-c2cc(-c3ccc(NC(C)=O)cc3)nc(N)c2C#N)ccc1O	-6.8%
O=C(NCc1cccnc1)c1ccc(N2CCOCC2)c([N+](=O)[O-])c1	7.3%

Reprinted at random: three records from the list.
SMILES	VDR inhibitor
CN1C(=O)C(c2ccccc2[N+](=O)[O-])C(=O)c2ccccc21 (configuration not stated)	-9.1%
O=C(CSc1cn(CC(=O)N2CCCCC2)c2ccccc12)NCC1CCCO1 (configuration not stated)	?
CCOc1ccc(NC(=O)CCS(=O)(=O)c2ccc(C)cc2)cc1	11.4%

Screens as filed in PubChem.
